Bioassay records as filed in PubChem BioAssay.
MLL AF4-AF9 inh: blocks AF4 peptide binding to human AF9 | P42568 | AlphaScreen, biotin-AF4 peptide binding to FLAG-AF9 | inhibition, % at 10 µM | 350,000 compounds, 0.47% hits;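 active means every replicate reaching a set inhibition limit, whatever the replicate mean, cut at about 25% in these data; inconclusive means mean inhibition reaches that limit but some replicates miss it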;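 further: 0% = plate neutral control median and 100% = total signal loss; the record names both 10 and 1 µM as test concentration; the first replicate is given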
FGF22 binding: binders of recombinant human FGF22 by thermal shift | SYPRO orange fluorescence; percent of sucrose octasulfate shift, DMSO zero | Q9HCT0 | calls only at 9.99 µM | 340,000 compounds, 1.5% hits;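 active means melting point raised past a set limit in the mean and every replicate; inconclusive means no clear call; three in four hits are not shown here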
Target sequence (Q9HCT0 whole entry, looked up): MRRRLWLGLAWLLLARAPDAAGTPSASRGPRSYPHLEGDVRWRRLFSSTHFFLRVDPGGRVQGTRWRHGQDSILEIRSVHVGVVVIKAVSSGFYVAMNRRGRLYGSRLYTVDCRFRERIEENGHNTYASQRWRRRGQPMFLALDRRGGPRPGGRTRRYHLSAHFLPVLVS
HNF4A DNA FP: change in binding of human HNF4 alpha to DNA. P41235. 360,000 compounds, 0.3% hits. activity change, % at 10 µM. AID 1224865. HNF4a-FITC DNA binding, fluorescence polarization, 1 h; in the data active means activity change above about 30%, passing the limit was not always enough;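 further: controls were the assay level and a saturating level of protein; the project sought stronger binding though the title names inhibitors; some compounds called inactive have numbers as strong as hits; positive values seem to mean higher polarization but the record does not say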
Target sequence (P41235 whole entry, looked up): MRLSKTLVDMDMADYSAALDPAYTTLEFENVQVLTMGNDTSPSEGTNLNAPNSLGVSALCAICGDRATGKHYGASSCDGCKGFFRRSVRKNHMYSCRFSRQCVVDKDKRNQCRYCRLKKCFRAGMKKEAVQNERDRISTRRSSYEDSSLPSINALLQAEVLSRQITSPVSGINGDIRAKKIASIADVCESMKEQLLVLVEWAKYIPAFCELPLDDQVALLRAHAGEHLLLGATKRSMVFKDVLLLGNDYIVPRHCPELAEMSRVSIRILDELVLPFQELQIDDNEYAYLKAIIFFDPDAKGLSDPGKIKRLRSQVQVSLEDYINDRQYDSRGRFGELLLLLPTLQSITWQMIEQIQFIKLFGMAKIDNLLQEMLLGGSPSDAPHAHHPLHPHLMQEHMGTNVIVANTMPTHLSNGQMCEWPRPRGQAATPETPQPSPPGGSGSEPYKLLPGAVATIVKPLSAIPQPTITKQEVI
UCH37 DUB inh: inhibitors of human deubiquitinating enzyme UCH37. Q9Y5K5. purified proteasome/UCH37, Ub-AMC cleavage fluorescence. inhibition, % (concentration not given with the values). 330,000 compounds, 0.33% hits. AID 588478;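 active means mean of two replicates above 20%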;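 further: 0% = compound-free wells with enzyme and 100% = wells lacking proteasome; stock transfer was 100 nL into about 20 µL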
Target sequence (Q9Y5K5 whole entry, looked up): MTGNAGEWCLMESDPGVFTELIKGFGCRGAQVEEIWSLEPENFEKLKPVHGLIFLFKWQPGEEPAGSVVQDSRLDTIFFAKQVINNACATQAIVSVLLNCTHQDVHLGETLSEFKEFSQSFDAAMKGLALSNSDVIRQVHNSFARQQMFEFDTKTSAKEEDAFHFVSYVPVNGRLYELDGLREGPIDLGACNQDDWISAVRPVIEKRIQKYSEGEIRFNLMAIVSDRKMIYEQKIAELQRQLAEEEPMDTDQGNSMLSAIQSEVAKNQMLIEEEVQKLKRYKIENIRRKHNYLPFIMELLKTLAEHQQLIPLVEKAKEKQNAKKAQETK
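Material: Human UCH37 enzyme supplied as purified proteasome complex | Schedule: 30 min compound-proteasome preincubation then 25 min substrate reaction, room temperature | Detection: AMC fluorescence from Ub-AMC cleavage, excitation 355 nm, emission 460 nm | Benchmarks: Wells without proteasome as full block, compound-free enzyme plus substrate as uninhibited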
Vif TR-FRET: inhibitors of Vif binding to APOBEC3G peptide, primary screen, biochemical, TR-FRET, GST-Vif 1-94, biotin-A3G peptide, dose response retest (AID 1117319). 260,000 compounds, 0.57% hits. TR-FRET GST-Vif / biotin-A3G peptide binding; higher % means a stronger effect; test concentration not given here; strong numbers were not always called active. one-dose inhibition, %; IC50 in µM for titrated hits;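 active means above the screen mean plus three standard deviations and confirmed in dose response; inconclusive means results disagree or hit not tested in dose response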;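 further: Vif residues 1-94 fused to GST binding biotinylated APOBEC3G peptide 110-148; 0% = full assay without inhibitor and 100% = GST in place of GST-Vif; retest series ran down from 100 µM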
RanGTP-Impb inh: disruptors of Ran-importin-beta complex formation – biochemical, FRET, CFP-Ran, YFP-importin-beta, homogeneous, primary screen; cell-free CFP-Ran/YFP-importin-beta FRET ratio; 300,000 compounds, 1.1% hits; inhibition, % (concentration not given with the values); AID 2216;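 active means most replicates above 15%; inconclusive means exactly half above 15%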;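 further: 0% = DMSO wells and 100% = Ran loaded with GDP instead of GTP; wells of about 40 µL received 100 nL stock; the first replicate is given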
E coli growth: inhibitors of Escherichia coli growth; 330,000 compounds, 0.21% hits; AID 1053175; OD600, 23 h; stronger effect = lower value; OD600 absorbance (no concentration beside the values);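 active means OD600 absorbance below the run mean of sample wells minus 3.6 SD, in any replicate, cut at about 0.56 in these data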;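 further: stock transfer was 300 nL into about 60 µL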
The depositor's hits bear a star; & = joins results of further samples. An excerpt; the hit share may differ from the screen's.

What do the screens show for `CCC1(c2ccc(F)cc2)NC(=O)N(CC(=O)N(C)C2CCS(=O)(=O)C2)C1=O` (stereo not given)?
MLL AF4-AF9 inh: 0.8; FGF22 binding: inactive; HNF4A DNA FP: 2.8; UCH37 DUB inh: 4.0; Vif TR-FRET: 4%; RanGTP-Impb inh: -4.2; E coli growth: 0.69

What do the screens show for `CCCNC(=O)c1ccc2c(=O)c(O)c(-c3ccc(Cl)c([N+](=O)[O-])c3)[nH]c2c1`?
MLL AF4-AF9 inh: 3.7; FGF22 binding: inactive; HNF4A DNA FP: -3.4; UCH37 DUB inh: 0.1; Vif TR-FRET: 0%; RanGTP-Impb inh: 6.5

How did CCOC(=O)[C@]12CCC=C1N(Cc1ccc3c(c1)OCO3)C(=O)[C@H](CC(=O)NCCCN1CCCC1=O)C2 do in these assays?
MLL AF4-AF9 inh: -2.2; FGF22 binding: inactive; HNF4A DNA FP: 0.6

How did COc1ccccc1NC(=O)CN(Cc1ccco1)C(=O)c1cccs1 do in these assays?
HNF4A DNA FP: 0.4; UCH37 DUB inh: 3.0; Vif TR-FRET: inconclusive; RanGTP-Impb inh: -4.4; E coli growth: 0.75

What do the screens show for `CC1NC(=O)c2cccnc2-n2c1nc1ccccc1c2=O` (stereo not given)?
MLL AF4-AF9 inh: -1.2; FGF22 binding: inactive; HNF4A DNA FP: -0.4

Results for O=C(NC1CCCCC1)c1ccc(S(=O)(=O)N2CCCC2)cc1 ?
HNF4A DNA FP: -0.1; UCH37 DUB inh: 2.6; Vif TR-FRET: -3%; RanGTP-Impb inh: 4.2; E coli growth: 0.73

What do the screens show for `COc1ccc(CNC(=O)CN(C(=O)c2ccc(CN3CCOCC3)o2)C2CCCC2)cc1`?
HNF4A DNA FP: -2.4; UCH37 DUB inh: 0.9; Vif TR-FRET: 17%; RanGTP-Impb inh: 5.5; E coli growth: 0.68

What do the screens show for `CCCC#Cc1ccc2c(c1)O[C@@H](CN(C)Cc1ccc3c(c1)OCO3)[C@H](C)CN([C@@H](C)CO)S2(=O)=O`?
MLL AF4-AF9 inh: 1.5&-6.5&-6.7; FGF22 binding: inactive; HNF4A DNA FP: 2.0; Vif TR-FRET: 5%

Results for Cn1ncc(C#N)c1NC(=O)C1CC(c2ccccc2Cl)=NO1 (stereo not given) ?
MLL AF4-AF9 inh: -1.8; FGF22 binding: inactive; UCH37 DUB inh: 0.5; Vif TR-FRET: -4%; RanGTP-Impb inh: -3.6; E coli growth: 0.69

How did CCOc1ccccc1NC(=O)CC1Nc2ccccc2NC1=O (stereo not given) do in these assays?
HNF4A DNA FP: 1.1; UCH37 DUB inh: -0.6; Vif TR-FRET: -4%&6%; RanGTP-Impb inh: -1.8; E coli growth: 0.69

What do the screens show for `COc1ccc(OC)c(S(=O)(=O)N2Cc3ccccc3CC2C(=O)Nc2nccs2)c1` (stereo not given)?
HNF4A DNA FP: -0.6; UCH37 DUB inh: 2.7; Vif TR-FRET: 6%; E coli growth: 0.7

What do the screens show for `Cn1c(=O)c2c(-c3ccccc3)n(-c3ccccc3O)cc2n(C)c1=O`?
MLL AF4-AF9 inh: 3.2; FGF22 binding: inactive; HNF4A DNA FP: 1.4; UCH37 DUB inh: -21; Vif TR-FRET: inconclusive; RanGTP-Impb inh: -1.1; E coli growth: 0.73

Results for Cc1cc(Br)ccc1OCCCCNC(C)(C)C ?
HNF4A DNA FP: -0.9; UCH37 DUB inh: 5.0; Vif TR-FRET: 1%; RanGTP-Impb inh: -2.0; E coli growth: 0.71

Results for O=c1[nH]c(SCc2cccc(Cl)c2)nc2[nH]ncc12 ?
MLL AF4-AF9 inh: -0.3; FGF22 binding: inactive; HNF4A DNA FP: -5.4; UCH37 DUB inh: 16; Vif TR-FRET: 2%; RanGTP-Impb inh: 2.5; E coli growth: 0.7

How did C/C(=N\NC(=O)CSc1nnc(C)s1)c1ccc(O)cc1 do in these assays?
MLL AF4-AF9 inh: -3.8; FGF22 binding: inactive; HNF4A DNA FP: 4.1; RanGTP-Impb inh: 8.7

How did Cc1ccc(S(=O)(=O)N2CCC(C(=O)OCC(=O)N(Cc3ccccc3)C(C)C)CC2)cc1C do in these assays?
MLL AF4-AF9 inh: -0.3; FGF22 binding: inactive; HNF4A DNA FP: 2.4; Vif TR-FRET: -1%

What do the screens show for `C[C@H]1CN([C@@H](C)CO)C(=O)CCCn2nncc2CO[C@H]1CN(C)C(=O)Nc1ccnc(N2CCOCC2)c1`?
MLL AF4-AF9 inh: -3.8&-3.0; FGF22 binding: inactive; HNF4A DNA FP: 1.5; Vif TR-FRET: -8%

How did O=C(C1CCC(=O)N(C2CC2)C1)N(CCO)Cc1ccccc1 (stereo not given) do in these assays?
MLL AF4-AF9 inh: 0.5; FGF22 binding: inactive; HNF4A DNA FP: 0.8; UCH37 DUB inh: 4.2; RanGTP-Impb inh: -2.4; E coli growth: 0.69

Results for COCCN(C(=O)Cc1cccs1)C(C(=O)NC1CCCC1)c1cc(OC)c(OC)c(OC)c1 (stereo not given) ?
MLL AF4-AF9 inh: -17; FGF22 binding: inactive; HNF4A DNA FP: 4.1; UCH37 DUB inh: 0.5; Vif TR-FRET: -5%; RanGTP-Impb inh: 5.8; E coli growth: 0.72

Results for CC(=O)C1=C(O)C(=O)N(c2nnn(C)n2)C1c1cccs1 (stereo not given) ?
MLL AF4-AF9 inh: -9.1; FGF22 binding: inactive; HNF4A DNA FP: 2.3; UCH37 DUB inh: 9.6; Vif TR-FRET: 10%; RanGTP-Impb inh: 6.8; E coli growth: 0.74

Results for CC(C)Oc1cc(NC(=O)CS(=O)CC(=O)Nc2cccc(C(F)(F)F)c2)c(Cl)cc1Cl (stereo not given) ?
MLL AF4-AF9 inh: -1.1; FGF22 binding: inactive; HNF4A DNA FP: -2.5; UCH37 DUB inh: 0.7; Vif TR-FRET: -9%; RanGTP-Impb inh: 7.8; E coli growth: 0.69

How did COc1ccc(CC2(C)OC(c3ccc(C)cc3)=NN2C(C)=O)cc1 (stereo not given) do in these assays?
HNF4A DNA FP: 1.6; UCH37 DUB inh: -4.3; Vif TR-FRET: -8%; RanGTP-Impb inh: 3.1; E coli growth: 0.66

Results for CC(=O)Nc1ccc(NC(=O)CN(c2cccc(C)c2)S(C)(=O)=O)cc1 ?
HNF4A DNA FP: 1.6; UCH37 DUB inh: 2.3; Vif TR-FRET: 11%; RanGTP-Impb inh: 1.6; E coli growth: 0.66

How did C[C@@H](NC(=O)Cn1cnc2c(NCc3ccccc3)ncnc21)c1cccc2ccccc12 do in these assays?
MLL AF4-AF9 inh: -1.6; FGF22 binding: inactive; HNF4A DNA FP: -4.4; UCH37 DUB inh: -1.7; Vif TR-FRET: -2%; E coli growth: 0.71

Ordered by length of the SMILES (lowest first): part of the list above.
Results for Cc1cc(Br)ccc1OCCCCNC(C)(C)C ?
HNF4A DNA FP: -0.9; UCH37 DUB inh: 5.0; Vif TR-FRET: 1%; RanGTP-Impb inh: -2.0; E coli growth: 0.71

How did C/C(=N\NC(=O)CSc1nnc(C)s1)c1ccc(O)cc1 do in these assays?
MLL AF4-AF9 inh: -3.8; FGF22 binding: inactive; HNF4A DNA FP: 4.1; RanGTP-Impb inh: 8.7

How did O=C(C1CCC(=O)N(C2CC2)C1)N(CCO)Cc1ccccc1 (stereo not given) do in these assays?
MLL AF4-AF9 inh: 0.5; FGF22 binding: inactive; HNF4A DNA FP: 0.8; UCH37 DUB inh: 4.2; RanGTP-Impb inh: -2.4; E coli growth: 0.69

How did COc1ccc(CC2(C)OC(c3ccc(C)cc3)=NN2C(C)=O)cc1 (stereo not given) do in these assays?
HNF4A DNA FP: 1.6; UCH37 DUB inh: -4.3; Vif TR-FRET: -8%; RanGTP-Impb inh: 3.1; E coli growth: 0.66

Next structures
Results for CCCc1nnc(NC(=O)c2cccc(OC)c2)s1 ?
MLL AF4-AF9 inh: -1.6; FGF22 binding: inactive; HNF4A DNA FP: -0.2; UCH37 DUB inh: 4.9; Vif TR-FRET: 1%; RanGTP-Impb inh: -3.1; E coli growth: 0.64

Results for Cc1noc(C)c1COC(=O)c1ccc(S(=O)(=O)N2CCCCC2)cc1 ?
MLL AF4-AF9 inh: -1.6; FGF22 binding: inactive; HNF4A DNA FP: 3.0; UCH37 DUB inh: 3.7; Vif TR-FRET: 24%; RanGTP-Impb inh: -2.6; E coli growth: 0.72

How did O=C(O)CCC/C=C\C[C@@H]1[C@@H](/C=C/[C@@H](O)COc2cccc(Cl)c2)[C@H](O)C[C@@H]1O do in these assays?
MLL AF4-AF9 inh: -1.0; FGF22 binding: inactive; HNF4A DNA FP: -7.1; UCH37 DUB inh: 4.2; Vif TR-FRET: inconclusive; RanGTP-Impb inh: -5.0

How did O=C(O)CCC(=O)c1c[nH]c2ccccc12 do in these assays?
HNF4A DNA FP: -1.2; UCH37 DUB inh: 4.8; Vif TR-FRET: -2%; RanGTP-Impb inh: inconclusive; E coli growth: 0.68

How did CCOC(=O)n1cc(-c2cnc(CNC(=O)C(C)(c3ccccc3)c3ccccc3)o2)c2ccccc21 do in these assays?
MLL AF4-AF9 inh: -1.8; FGF22 binding: inactive; UCH37 DUB inh: 2.5; Vif TR-FRET: 8%; RanGTP-Impb inh: -1.2; E coli growth: 0.72

What do the screens show for `Fc1ccc(NCc2n[nH]c(=S)n2Cc2ccccc2)cc1`?
MLL AF4-AF9 inh: -14; FGF22 binding: inactive; HNF4A DNA FP: 1.7; UCH37 DUB inh: 3.7; Vif TR-FRET: 1%; RanGTP-Impb inh: 1.5; E coli growth: 0.65

What do the screens show for `COC(=O)C1(C(=O)OC)C2CCCCC2N(S(=O)(=O)c2ccc(C)cc2)[C@@H]1CC(C)=O` (stereo not given in full)?
MLL AF4-AF9 inh: -2.2; FGF22 binding: inactive; HNF4A DNA FP: 2.7

Results for O=C(COc1ccc(Cl)cc1Cl)N1CCCCCC1 ?
HNF4A DNA FP: 3.0; UCH37 DUB inh: 2.9; Vif TR-FRET: 1%; RanGTP-Impb inh: 0.0; E coli growth: 0.74

Results for Cc1nn(-c2ccccc2)c(N)c1Sc1ccccc1[N+](=O)[O-] ?
MLL AF4-AF9 inh: 17; FGF22 binding: inactive; HNF4A DNA FP: 1.5; UCH37 DUB inh: 1.7; RanGTP-Impb inh: 9.5; E coli growth: 0.68

Results for FC(F)(F)c1ccccc1CNCc1ccc2c(c1)OCO2 ?
MLL AF4-AF9 inh: 1.5; FGF22 binding: inactive; HNF4A DNA FP: -0.5; UCH37 DUB inh: 1.7; Vif TR-FRET: -1%; RanGTP-Impb inh: inconclusive; E coli growth: 0.66

How did CN1CCc2c(sc(NC(=O)CS(=O)(=O)c3ccc(F)cc3)c2C(N)=O)C1 do in these assays?
MLL AF4-AF9 inh: -0.8; FGF22 binding: inactive; HNF4A DNA FP: 0.6; UCH37 DUB inh: 1.2; Vif TR-FRET: -5%; RanGTP-Impb inh: 163*; E coli growth: 0.64

Results for CCOc1ccccc1N(CC(=O)OC)S(=O)(=O)c1ccccc1 ?
HNF4A DNA FP: 2.2; UCH37 DUB inh: 3.8; Vif TR-FRET: 1%; RanGTP-Impb inh: 3.3; E coli growth: 0.73

Results for O=C(CN1CCN(C2CCCCC2)CC1)Nc1ccccc1N1CCCCC1 ?
HNF4A DNA FP: 1.8; UCH37 DUB inh: 7.3; Vif TR-FRET: 9%; RanGTP-Impb inh: -3.9; E coli growth: 0.66
